KCNQ2 enhance: enhances the rat KCNQ2 potassium channel | O88943 | CHO-K1 KCNQ2, FluxOR thallium flux fluorescence; hits give high values | B-score at 10 µM | 0.54% of 310,000 active | AID 2239;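 active = fluorescence ratio B-score at least 3 SD of library B-scores, with initial fluorescence B-score within 3 SD, cut at about 5.3 in these data; same plate scores as AID 2156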;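 note: B-score of peak minus minimum over baseline fluorescence ratio after K+ and Tl+ stimulus; positive B-score means potentiation of KCNQ2 with more thallium influx and brighter signal; only the inactives scoring about 0 or higher are listed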
Target sequence (O88943 whole entry, looked up): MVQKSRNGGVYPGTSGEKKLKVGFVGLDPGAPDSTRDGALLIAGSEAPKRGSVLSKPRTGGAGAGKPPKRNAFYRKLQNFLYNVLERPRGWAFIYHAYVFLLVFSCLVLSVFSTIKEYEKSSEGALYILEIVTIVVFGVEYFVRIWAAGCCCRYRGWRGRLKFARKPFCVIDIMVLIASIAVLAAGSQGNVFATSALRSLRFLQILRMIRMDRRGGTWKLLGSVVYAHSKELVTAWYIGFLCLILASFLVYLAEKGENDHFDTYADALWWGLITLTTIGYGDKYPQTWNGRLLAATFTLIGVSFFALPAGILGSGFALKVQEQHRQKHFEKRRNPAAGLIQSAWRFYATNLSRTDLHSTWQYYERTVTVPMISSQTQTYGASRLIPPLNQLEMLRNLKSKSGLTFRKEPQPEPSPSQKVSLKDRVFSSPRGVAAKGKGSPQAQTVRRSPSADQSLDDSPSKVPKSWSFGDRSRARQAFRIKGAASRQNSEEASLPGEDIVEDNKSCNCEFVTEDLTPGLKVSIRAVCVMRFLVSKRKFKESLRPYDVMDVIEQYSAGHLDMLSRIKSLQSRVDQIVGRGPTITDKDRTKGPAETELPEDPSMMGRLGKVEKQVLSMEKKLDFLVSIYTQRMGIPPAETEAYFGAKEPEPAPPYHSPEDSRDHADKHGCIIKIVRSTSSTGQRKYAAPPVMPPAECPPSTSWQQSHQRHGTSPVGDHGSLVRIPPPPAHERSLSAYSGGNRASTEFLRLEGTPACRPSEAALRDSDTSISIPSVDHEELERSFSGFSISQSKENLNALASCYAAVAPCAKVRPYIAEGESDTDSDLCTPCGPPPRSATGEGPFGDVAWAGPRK
KCNQ2 enhance baseline: second read-out of KCNQ2 enhance, no call of its own (marks repeat the call); B-score; compound at 10 µM; measured here: initial fluorescence intensity artifact check;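 brightness before thallium and not channel activity; 0 = typical well and far values either way flag optical interference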
The depositor's hits bear a star; x = no result given. An excerpt; count on the stated rates, not on these rows.

KCNQ2 enhance | KCNQ2 enhance baseline | Structure
0.21 | -0.6 | O=C(CCNC(=O)c1ccccc1Cl)NCC1CCCO1 (configuration not stated)
0.37 | -1.26 | O=C(CS(=O)(=O)c1cn(CC(=O)N2CCCC2)c2ccccc12)Nc1ccccc1
0.93 | 0.04 | Cc1cc(NC(=O)CN2C(=O)NC3(CCC(C)CC3)C2=O)no1 (configuration not stated)
0.41 | -1.73 | Nc1nccc(/C=C/c2c(F)cccc2Cl)n1
0.4 | 0.61 | O=C(CN1C(=O)C2CC=CCC2C1=O)Nc1ccccc1N1CCCC1 (configuration not stated)
0.41 | 0.05 | CCOc1ccc(N2C(=O)CSC23CCCCC3)cc1
0.18 | -1.11 | CCC(=O)NCCNc1ccc([N+](=O)[O-])cn1
0.69 | 0.25 | CC(C)(C)S(=O)c1cccs1 (configuration not stated)
1.39 | -1.58 | Cc1ccc(CNC(=O)Nc2ccc3c(c2)N(C)C(=O)CS3)cc1
0.52 | 0.03 | N#CC1=C(N)N(c2ccc(Oc3ccccc3)cc2)C(=O)C1
0.04 | -0.16 | COC(=O)c1cc(S(=O)(=O)N2CCN(c3ccccc3F)CC2)c[nH]1
0.91 | -0.94 | COc1ccc(C(=O)N2CC(=O)Nc3ccc(C)cc3C2c2ccccc2)cc1 (configuration not stated)
3.64 | -1.67 | Brc1cc2c(cc1/C=N/Nc1nc3ccccc3s1)OCO2
0.92 | -1.05 | CC(Oc1ccc(C(=O)c2ccccc2)cc1)C(=O)N1CCOCC1 (configuration not stated)
0.01 | -0.03 | Cc1onc(-c2ccccc2)c1C(=O)n1nnc2ccccc21
0.06 | -0.53 | O=C1COc2ccc(S(=O)(=O)N3CCCCC3)cc2N1
2.33 | 1.46 | O=C(O)COc1ccccc1/C=N/NC(=O)CSc1nc2ccccc2n1Cc1ccccc1Cl
1.04 | 0 | COc1ccc(C(=O)Nc2ccc(C(=O)Nc3nccs3)cc2)cc1[N+](=O)[O-]
2.26 | 0.01 | NNC(=O)CN1C(=O)Nc2ccc(Cl)cc2C1c1ccccc1 (configuration not stated)
0.02 | 0.99 | CCc1cccc(NC(=O)CCSCCC(=O)Nc2cccc(CC)c2)c1
0.29 | -0.07 | CCOC(=O)C(NC(=O)c1cccnc1)(Nc1cccc(C)n1)C(F)(F)F (configuration not stated)
1.24 | -1.94 | COc1ccccc1N/N=C/c1c(CO)cnc(C)c1O
1.27 | 0.72 | O=C(Nc1ccccc1C(=O)NCc1ccco1)NC1CCCCC1
0.03 | 0.21 | CCc1ccc(OCCCC(=O)O)c(Br)c1
0.27 | -0.53 | CC(C)(C)C(=O)CC(=O)Nc1ccc(Cl)c(N)c1
0.17 | 0.21 | Cc1ccc(S(=O)(=O)Oc2ccc(/C=N/NC(=O)c3nn(C)cc3[N+](=O)[O-])cc2)cc1
1.72 | -1.1 | CC(C)(C)NC(=O)C(=O)NNC(=O)C12CC3CC(CC(C3)C1)C2
0.08 | -0.8 | CCN(CC)Cc1cc(C(=O)O)c(-c2ccccc2)o1
1.23 | -0.59 | COc1cc(CNCCO)cc(Br)c1OCc1ccccc1
1.97 | 0.88 | CCCCCC/C=C/c1ccc(OC)c([C@H]2[C@H]3C=CC[C@@H](C)[C@@H]3C(=O)N2Cc2ccccc2)c1
0.56 | 0.29 | O=C(NC1=NCCS1)c1ccccc1OCc1ccc(F)cc1
1.75 | 1.45 | Cc1cc(NC(=O)CSc2nc3sc4c(c3c(=O)n2C)CCCC4)no1
0.99 | -1.09 | COC(=O)[C@H](Cc1ccccc1)NC(=O)N1CC(C)OC(C)C1 (some centres not stated)
1.34 | 0.06 | COc1ccc(NC(=O)Cc2nnc(SCC(=O)NC3CCCC3)n2C)cc1
1.05 | 0 | O=C(O)/C=C\C(=O)NNC(=O)c1cc(-c2ccccc2)n[nH]1
0.58 | -1.6 | Cc1cc2ccccc2c(=O)n1CC(=O)Nc1ccc2c(c1)OCO2
2.2 | 0.18 | CC(OCCN1CCCC1)(c1ccc(F)cc1)c1ccc(F)cc1
1.27 | -0.63 | COc1ccccc1Nc1nc(N)nc(CSC(=S)N2CCN(c3ccccc3)CC2)n1
1.7 | -2.76 | Cc1ccc(NC(=S)NNc2ccc([N+](=O)[O-])cc2S(=O)(=O)Nc2ccccc2C(=O)O)cc1C
0.88 | 0.07 | CCN(CC)C(=O)Oc1ccc2c(=O)c(-c3ccc(OC)cc3)coc2c1

Whole records as entered above.
COc1ccc(NC(=O)Cc2nnc(SCC(=O)NC3CCCC3)n2C)cc1 reads KCNQ2 enhance = 1.34; KCNQ2 enhance baseline = 0.06
COc1ccccc1Nc1nc(N)nc(CSC(=S)N2CCN(c3ccccc3)CC2)n1 reads KCNQ2 enhance = 1.27; KCNQ2 enhance baseline = -0.63

(next part)
KCNQ2 enhance | KCNQ2 enhance baseline | Structure
0.15 | -0.86 | COc1ccc2oc(C(=O)OCC(=O)N3CCCC3=O)c(C)c2c1
0.74 | 0.37 | COc1ccc(N2CC(C(=O)Nc3nnc(SCc4ccccn4)s3)CC2=O)cc1 (configuration not stated)
0.72 | 0.65 | CCOC(=O)/C(=C/c1ccc(OC)cc1)NC(=O)c1ccco1
1.51 | -0.49 | O=C(Nc1ccccc1)c1snc2c(=O)[nH]cnc12
0.18 | -0.42 | CCOC(=O)c1c(N)sc(C(=O)N(C)C)c1CN1CCOCC1
0.3 | -2.39 | CCN(C(=O)c1coc(=O)c2ccccc12)c1cc(OC)ccc1OC
0.03 | 0.05 | Cc1cc(C)n(CC(=O)n2c(C)c(C)c3ccccc32)n1
0.23 | -2.67 | CCCCC(O)(CCCC)C(=O)N/N=C(\C)c1ccc(Cl)cc1
1.3 | 0.89 | Cc1csc(NC(=O)c2cncc(Br)c2)n1
1.07 | 0.14 | CCOC(=O)C(NC(=O)c1ccc(OC)cc1)(N1CCCC1=O)C(F)(F)F (configuration not stated)

A draw from above in order of molecular weight, low to high.
KCNQ2 enhance | KCNQ2 enhance baseline | Structure
1.3 | 0.89 | Cc1csc(NC(=O)c2cncc(Br)c2)n1
0.01 | -0.03 | Cc1onc(-c2ccccc2)c1C(=O)n1nnc2ccccc21
0.21 | -0.6 | O=C(CCNC(=O)c1ccccc1Cl)NCC1CCCO1 (configuration not stated)
1.39 | -1.58 | Cc1ccc(CNC(=O)Nc2ccc3c(c2)N(C)C(=O)CS3)cc1
0.04 | -0.16 | COC(=O)c1cc(S(=O)(=O)N2CCN(c3ccccc3F)CC2)c[nH]1
0.29 | -0.07 | CCOC(=O)C(NC(=O)c1cccnc1)(Nc1cccc(C)n1)C(F)(F)F (configuration not stated)

Next entries.
KCNQ2 enhance | KCNQ2 enhance baseline | Structure
0.27 | 0.24 | CCC(=O)NCCc1cc2cc(C)c(C)cc2[nH]c1=O
0.52 | 2.37 | N#CCCN(Cc1ccccc1)S(=O)(=O)c1cccs1
1.82 | 1.01 | CCOc1cc(/C=C/C(=O)O)ccc1OCCO
0.89 | -1.66 | COc1cccc(/C=N/NC(=O)Cn2nc([N+](=O)[O-])cc2C)c1
0.13 | 0.18 | CC(C)OCCCNC(=O)c1ccccc1Oc1ccccc1
0.39 | 0.11 | O=C(N/N=C/c1c(O)n(-c2ccccc2Cl)c(=O)c2ccccc12)C1COc2ccccc2O1 (configuration not stated)
0.56 | -0.41 | Cc1cccc(Nc2ccc(C(=O)O)cc2[N+](=O)[O-])c1C
0.2 | -0.08 | COc1ccc(NC(=O)C2CCCCN2S(=O)(=O)c2ccc(F)cc2)cc1 (configuration not stated)
0.55 | 1.78 | Nc1c(NC(=O)CC[n+]2ccccc2)cccc1[N+](=O)[O-]
0.04 | 1.83 | CCCC(=O)NCc1cc(-c2nn(C)c(=O)c3ccccc23)ccc1OC
0.49 | -0.68 | Cc1cc(=O)oc2cc(NC(=O)C3COc4ccccc4O3)ccc12 (configuration not stated)
0.18 | 1.35 | Cc1nnc(SCCn2c(N3CCC(C)CC3)nc3c2c(=O)n(C)c(=O)n3C)s1
11.1* | 0.21* | CC1=NN(C(=O)c2cccnc2)C(O)(C(F)(F)F)C1 (configuration not stated)
0.48 | -1.8 | CCN(CC)S(=O)(=O)c1cccc(C(=O)Nc2ccc(Cl)cn2)c1
1.21 | -0.43 | Cc1ccc2[nH]c(=O)c(CN(Cc3cccs3)Cc3nnnn3CC3CCCO3)cc2c1 (configuration not stated)
1.14 | 0.54 | COCCNC(=O)c1cc(-c2ccncc2)nc2ccc(S(=O)(=O)N3CCOCC3)cc12
0.56 | -1.01 | O=C(COC(=O)Cc1c(Cl)cccc1Cl)Nc1ccccc1-c1ccccc1
0.62 | 0.4 | Cc1ccc(S(=O)(=O)NC(CC(C)C)C(=O)NCC(C)(C)N2CCOCC2)cc1 (configuration not stated)
0.02 | 3.38 | COCCN(CCOC)C(=O)C12CCC(C)(C(=O)C1)C2(C)C (configuration not stated)
2.02 | -1.26 | COc1ccc(-c2n[nH]c(C(F)(F)F)c2-c2cc3ccccc3o2)c(O)c1
1.2 | -1.2 | CC(=O)OCC(=O)N1CCN(c2ccc([N+](=O)[O-])cc2)CC1
0.37 | 0.03 | Cc1ccccc1CSc1nc2c(c(=O)[nH]1)CCC2
1.73 | -0.02 | O=C(COc1ccccc1Cl)NCCCNC(=O)c1ccncc1
0.19 | 0.15 | Clc1ccccc1CNCc1ccncc1
0.57 | 1.78 | Cc1ccccc1C(=O)N1CC(=O)Nc2ccc(F)cc2C1c1ccccc1 (configuration not stated)
0.98 | 0.8 | Cc1cccc(C(=O)Nc2ccc(S(=O)(=O)N3CCOCC3)cc2)c1[N+](=O)[O-]
0.06 | -0.92 | CCOC(=O)C1(Cc2ccccc2)CCCN(Cc2cnn(CC)c2)C1 (configuration not stated)
1.62 | -2.01 | CCOc1ccc2ccccc2c1/C=N\NC(=O)c1ccc([N+](=O)[O-])cc1
0.68 | -1.09 | CN(C)c1ccc(/C=c2/sc3n(c2=O)NC2(c4ccccc4)N(C)C(=O)N(C)C2(c2ccccc2)N=3)cc1 (configuration not stated)
1.23 | 0.38 | O=C(COC(=O)c1cccs1)NCC1CCCO1 (configuration not stated)
0.01 | 0.04 | Cc1cccc(C(=O)NCC(C)NC(=O)c2cccc(C)c2)c1 (configuration not stated)
0.04 | 0.76 | CCOC(=O)c1sc(NC(=O)c2cccs2)cc1C
0.61 | 0.06 | Cc1ccc(CC(=O)N/N=C/c2ccc(OC(=O)c3ccc([N+](=O)[O-])cc3)cc2)cc1
0.02 | -1.7 | Cc1cccc(N(CC(=O)Nc2c(C)n(C)n(-c3ccccc3)c2=O)S(C)(=O)=O)c1C
2.08 | -0.99 | CCN(CC)CCOC(=O)CCc1cccc2ccccc12
0.58 | 0.09 | Cc1cc(N2CCCC2)nc2ccc(NC(=S)NC(C)C)cc12
1.09 | -0.02 | CN(C)S(=O)(=O)c1ccc(NC(=S)NC(=O)c2ccc(Br)o2)cc1
0.01 | -2.03 | COc1ccc(NC(=S)NC23CC4CC(CC(C4)C2)C3)cc1OC
0.02 | -1.41 | Cc1cc(C)n(-c2nnc(C)n2NS(=O)(=O)c2ccc(F)cc2)n1
1.36 | 0.16 | CC(C)CN(CC(C)C)C(=O)Nc1ccccc1F
0.61 | -0.37 | O=C1CC(NS(=O)(=O)c2cccs2)CN1c1ccc(F)cc1 (configuration not stated)
0.39 | -1.17 | O=c1ccnc(Nc2ccc([N+](=O)[O-])cc2)[nH]1
1.01 | 0 | CCCCNC(=S)NCc1ccc2c(c1)cc(C)n2C
0.16 | 1.03 | CC1(C)C(c2ccccc2)=[N+]([O-])C2(CCCCC2=O)N1O (configuration not stated)
1.52 | 0 | Cc1cccc(-n2c(O)c(C=Nc3c(C)n(C)n(-c4ccccc4)c3=O)c3ccccc3c2=O)n1
4.2 | -0.74 | COc1ccccc1C(=O)NNC(=O)C(=O)NCc1ccccc1
0.81 | 0.05 | O=C(Nc1ccccc1)c1cn(CCBr)cn1
0.59 | -2.14 | CC(=O)Oc1ccc(C(=O)Nc2cccc(-c3nnc(-c4ccco4)o3)c2)cc1
0.71 | -0.18 | CCSCc1nnc(SCC(=O)Nc2ccc(OC)cc2)n1C
0.29 | -0.01 | O=C(CCc1ccc(Oc2cc([N+](=O)[O-])cc([N+](=O)[O-])c2)cc1)NC1CCCC1

Next section:
KCNQ2 enhance | KCNQ2 enhance baseline | Structure
0.33 | 1.75 | Cc1cc(NC(=O)CSc2nc(C3CCCCC3)nc3ccccc23)no1
0.02 | -1.06 | Cc1ccc(NC(=O)COC(=O)Cn2c(C)csc2=O)cc1
2.19 | -1.07 | CC1(C)Cc2c(c(N3CCOCC3)nc3sc(C(N)=O)c(N)c23)CO1
0.72 | -0.57 | O=c1c2[nH]c3ccc(F)cc3c2ncn1Cc1ccncc1
0.44 | 2.26 | CCOc1ccc(N(C(=O)c2snc(C(N)=O)c2N)C(CC)C(=O)NC2CCCC2)cc1 (configuration not stated)
0.37 | -0.21 | CC(C)[C@@H]1COC(c2cccc(C3=N[C@H](C(C)C)CO3)n2)=N1
1.12 | 1.37 | COc1ccc(OCc2cc(C(=O)N3CCSCC3)no2)c(Cl)c1
0.63 | -0.92 | O=C(NCc1nnnn1-c1ccc(F)cc1)C1CC(=O)N(c2ccc(F)cc2)C1 (configuration not stated)
0.09 | 2.37 | CCCC1(C(=O)O)NC(c2ccccc2O)C2C(=O)N(Cc3ccccc3)C(=O)C21 (configuration not stated)
1.46 | -0.09 | COc1ccccc1CNC(=O)C1CCN(C(=O)NC2CCCCC2)CC1
0.81 | 1.78 | CCOC(=O)C1CC(c2ccc(Cl)cc2)=NNC1=O (configuration not stated)
0.04 | 1.21 | CC1(C)CC(CC(=O)Nc2ccc([N+](=O)[O-])cc2)C(=O)O1 (configuration not stated)
0.03 | 0.42 | O=C(CNC(=O)c1ccco1)OCc1ccc(C(=O)c2ccccc2)cc1
1.33 | x | Cc1ncc(C[n+]2csc(CCO)c2C)c(N)n1
1.4 | 0.95 | Cc1ccc(S(=O)(=O)C2(C(=O)N3CCCC(C)C3)CC2)cc1 (configuration not stated)
1.85 | -1.33 | CN1C/C(=C/c2cccs2)C(=O)/C(=C\c2cccs2)C1
